Screening data as filed in PubChem BioAssay.
2A Renilla: FMDV 2A StopGo reporter, Renilla signal | HEK cells with a luciferase reporter of 2A StopGo recoding | Potency, µM (titrated, usually from 57.5 µM), for inactives: at the highest dose signal change, negative = less light | actives 0.32% (n = 120,000); active means well fitted falling curve with a large enough effect; inconclusive means small, poorly fitted or top-dose-only effect; inactive means no such curve, though single readings can be large or run the other way; note: nearly all actives have a fitted effect of over 55% in size; overnight with compound
2A firefly: lowers the firefly signal of an FMDV 2A StopGo reporter; actives 0.23% (n = 120,000); Potency, µM (top dose mostly 57.5 µM), inactives show top-dose signal change, negative = less light; HEK cells with a luciferase reporter of 2A StopGo recoding; active = well fitted falling curve with a large enough effect; inconclusive = small, poorly fitted or top-dose-only effect; inactive = no such curve, though single readings can be large or run the other way; note: nearly all actives have a fitted effect of over 60% in size; overnight with compound
* marks the source's active call; other numbers are inactive results; ? = inconclusive; [ ] = remark or other dose. % is set by controls: 0 for no effect and ±100 for the full control effect; potency is the fitted concentration of half-maximal effect.

SMILES | 2A Renilla | 2A firefly
O=C(CC(c1ccccc1)c1cc(Br)ccc1O)NCC1(c2ccccc2)CCCC1 (stereo not given) | -17% | -23%
COc1ccc(NC(=O)COC(=O)c2cc3ccccc3cc2O)cc1Cl | -9% | 23%
O=C(CSc1nc(-c2ccccc2)cn1-c1ccccc1F)Nc1ccc(F)cc1 | 75%[activator] | 26%
Cc1ccccc1Cn1c(=O)n(CC2CCC(C(=O)N3CCC(C)CC3)CC2)c(=O)c2sccc21 (stereo not given) | -6% | -31%
Cc1cc(NC(=O)C2CCCN(S(=O)(=O)c3ccc4[nH]c(=O)oc4c3)C2)ccc1Br (stereo not given) | -6% | -21%
Cc1ccc(-c2cc(NC(=O)C(C)Oc3ccccc3F)on2)cc1 (stereo not given) | -3% | 12%
COc1ccc(CC(=O)NCc2ccc3c(c2)CCN3C(=O)c2ccc(Cl)cc2)cc1OC | ? | ?
Cc1ccc(C(=O)c2ccccc2C(=O)OCc2ccccc2Cl)cc1 | 283%[activator] | 0%
COC(=O)CSc1ncc2c(n1)-c1ccccc1N(Cc1ccc(Cl)cc1)S2(=O)=O | -11% | -15%
COC(=O)C1=C(N)N(c2ccc(Br)cc2)C2=C(C(=O)CCC2)C1c1ccc(OC)cc1 (stereo not given) | -9% | -11%
COC(=O)c1cc2sc(Cl)cc2n1CC(=O)Nc1cc(OC)cc(OC)c1 | -5% | -9%
Cc1ccc2c(c1)c(=O)c1ccccc1n2CCCC(=O)Nc1ccc(C)c(C)c1 | -16% | -10%
CCc1nc2ccc(C(=O)NCc3ccc(N(C)C)cc3)cc2nc1CC | 49%[activator] | -19%
COc1ccccc1/C=C/c1nc(C#N)c(NCCCN2CCOCC2)o1 | 2% | 18%
CCOc1ccc(S(=O)(=O)[C@H]2CS(=O)(=O)C[C@@H]2N2CCN(c3ncccn3)CC2)cc1 | -15% | -15%

The last five entries of the section before come first, to join the parts.
SMILES | 2A Renilla | 2A firefly
COC(=O)c1cc2sc(Cl)cc2n1CC(=O)Nc1cc(OC)cc(OC)c1 | -5% | -9%
Cc1ccc2c(c1)c(=O)c1ccccc1n2CCCC(=O)Nc1ccc(C)c(C)c1 | -16% | -10%
CCc1nc2ccc(C(=O)NCc3ccc(N(C)C)cc3)cc2nc1CC | 49%[activator] | -19%
COc1ccccc1/C=C/c1nc(C#N)c(NCCCN2CCOCC2)o1 | 2% | 18%
CCOc1ccc(S(=O)(=O)[C@H]2CS(=O)(=O)C[C@@H]2N2CCN(c3ncccn3)CC2)cc1 | -15% | -15%
Cc1ccc(CNC(=O)Cn2c(=O)n(Cc3ccccc3)c(=O)c3sc4ccccc4c32)cc1 | -3% | -6%
Cc1ccccc1NC(=O)CSc1nccc(-c2ccc(OC(F)F)cc2)n1 | 12% | 8%
COc1ccc(NC(=O)c2sc3c(c2C)C(c2cccc(C(F)(F)F)c2)CC(=O)N3)cc1 (stereo not given) | ? | ?
N#CCC(=O)Nc1ccc(C(=O)OCC(=O)N2CCN(c3ccccc3)CC2)cc1 | -5% | -9%
CCN(c1ccc(C)cc1C)S(=O)(=O)c1nnc(NC(=O)c2ccccc2OC)s1 | -1% | 2%
COc1ccc(NC(=O)Cn2c(=O)n(CCc3ccccc3)c(=O)c3c4c(sc32)CCCC4)cc1 | -7% | -15%
O=c1oc2ccccc2cc1-c1cn2cc(Cc3ccc(Br)cc3)sc2n1 | 3% | 45%[activator]
COC(=O)CN1C(=O)CSc2ccc(S(=O)(=O)N3CCOCC3)cc21 | 5% | -14%
COc1ccc(-c2cc(C(=O)Oc3cccc(C)c3)c3cc(C)ccc3n2)cc1 | -8% | -15%
CCN(Cc1ccccc1)C(=O)Nc1ccc2c(c1)N(C)C(=O)c1ccccc1S2 | -3% | -10%
CCN1CCN(C(=O)N[C@@H](C(=O)N[C@@H]2C(=O)N3[C@@H]2SC(C)(C)[C@H]3C(=O)O)c2ccccc2)C(=O)C1=O | -7% | 0%[11.5 µM]
NC(=O)C1CN(CC(=O)Nc2ccccc2Cl)c2ccccc2O1 (stereo not given) | -6% | -9%
CCc1ccccc1NC(=O)C(=O)NCCc1csc(-c2ccc(C(F)(F)F)cc2)n1 | -19% | -11%
COc1cccc(OC)c1OCc1ccon1 | 4% | 9%
Cc1ccc(N2CCn3c2nc2c3c(=O)n(C/C=C/c3ccccc3)c(=O)n2C)cc1C | -7% | -2%
O=C(NCCc1c[nH]c2ccc(Cl)cc12)c1ccccc1Br | 51%[activator] | 19%
CCOC(=O)c1cccc(NC(=O)Cn2c(=O)nc(-c3ccccc3)c3ccccc32)c1 | -7% | 0%
CCNS(=O)(=O)c1cc(C(=O)NC)ccc1OC | 7% | 2%
COc1ccc(-n2ccn(CC(=O)Nc3c(C)cc(C)cc3C)c2=O)cc1 | -4% | 1%
O=C(NCC1CCN(Cc2ccccc2Cl)CC1)c1cc2ccc3cccnc3c2[nH]1 | -2% | 7%
O=C(O)CN1C(=O)S/C(=C\c2cn(CC(=O)N3CCOCC3)c3ccccc23)C1=O | 21% | 14%
CCCNC(=S)Nc1cc(Cl)c(Cl)cc1Cl | 2% | -4%
O=C(CSc1nnc(-c2ccccc2)c2ccccc12)c1ccc2c(c1)OCCCO2 | 14% | 96%[activator]
COCc1nnc(NC(=O)Cn2ccc3c(Cl)cccc32)s1 | 2% | 19%
Cc1nnc(NC(=O)c2cccn(Cc3cccc(F)c3)c2=O)s1 | 7% | -13%
Cc1cccc(Nc2nc(C)c(C(=O)Nc3ccccc3)s2)c1 | -6% | 106%[activator]
Cc1c2cnn(-c3ccccc3)c(=O)c2c(C)n1CC(=O)NCc1ccccc1Br | 4% | 0%
COc1ccccc1CNC(=O)Cn1c(-c2cccs2)cc2cc(F)ccc21 | 10% | -1%
COc1ccccc1NC(=O)c1c(NCc2sccc2C)sc2c1CCCCC2 | -2% | -22%
CC(C)(C)OC(=O)N1CCC(c2c(C(=O)N3CCN(C(=O)c4ccco4)CC3)cnn2-c2ccccc2Cl)CC1 | -14% | 0%

Exported tab-delimited: part of the list above
compound	2A Renilla	2A firefly
COc1ccccc1/C=C/c1nc(C#N)c(NCCCN2CCOCC2)o1	2%	18%
CCOc1ccc(S(=O)(=O)[C@H]2CS(=O)(=O)C[C@@H]2N2CCN(c3ncccn3)CC2)cc1	-15%	-15%
Cc1ccc(CNC(=O)Cn2c(=O)n(Cc3ccccc3)c(=O)c3sc4ccccc4c32)cc1	-3%	-6%
Cc1ccccc1NC(=O)CSc1nccc(-c2ccc(OC(F)F)cc2)n1	12%	8%
COc1ccc(NC(=O)c2sc3c(c2C)C(c2cccc(C(F)(F)F)c2)CC(=O)N3)cc1 (stereo not given)	?	?

Next section
SMILES | 2A Renilla | 2A firefly
CCc1c(C)sc(NC(=O)c2ccc(C)s2)c1C(N)=O | 29% | 51%[activator]
CCCOc1cccc(C2c3c(-c4c(C)cc(C)cc4O)n[nH]c3C(=O)N2CCO)c1 (stereo not given) | -4% | 4%
CCN(CC)S(=O)(=O)c1ccc2c(c1)N(CC(=O)N1CCN(c3cccc(Cl)c3)CC1)C(=O)CO2 | -6% | -20%
CC(C)Oc1ccc(C(=O)N2CCN(CCc3ccccn3)CC2)cc1 | -8% | -1%
CN(CCNC(=O)C1CCN(c2nc3cccnc3s2)CC1)C1CCCCC1 | -6% | -11%
Cc1c(C(=O)N2CCC(C)CC2)c(S(=O)(=O)Nc2cccc(C(F)(F)F)c2)c(C)n1C | 291%[activator] | -4%
CN(Cc1nc2ccccc2n1C(F)F)S(=O)(=O)c1ccccc1Br | 16% | 17%
O/N=C/c1ccccc1Br | -5% | 10%
O=C(CCc1cccnc1)NCc1ccccn1 | 3% | -3%
CCn1nc(C(=O)Nc2ccnn2C2CCCC2)c2ccccc2c1=O | -12% | -1%
CCN(CC)S(=O)(=O)c1ccc(N(C)C)c(NS(=O)(=O)c2ccccc2C(F)(F)F)c1 | 248%[activator] | 1%
CC(C)COC(=O)Cn1nnc2sc(-c3ccccc3)cc2c1=O | 1% | 2%
O=S(Cc1cccc(C(F)(F)F)c1)Cc1ccc(F)cc1Cl (stereo not given) | 50%[activator] | 48%[activator]
O=C(CN(c1ccc(Cl)c(C(F)(F)F)c1)S(=O)(=O)c1ccccc1)N1CCc2ccccc2C1 | 142%[activator] | -20%
CCc1ccc(NC(=O)Cn2cc(S(=O)(=O)c3ccc(F)cc3)c(=O)c3cc(OC)ccc32)cc1 | -12% | -19%
O=C(NCc1cccs1)C1CCN(c2nccn3nc(-c4ccc(F)cc4)cc23)CC1 | -3% | -3%
Cc1ccc(CNC(=O)C2CCN(S(=O)(=O)N3CCCCC3)CC2)cc1 | -9% | -13%
c1ccc(CNc2nc(Nc3ccccc3)nc3ccccc23)cc1 | 13µM* | ?
CC1CCN(c2ccc(NC(=O)c3ccccc3SC3CCS(=O)(=O)C3)cc2)CC1 (stereo not given) | 3% | 0%
Cc1ccc2nc(Nc3cccc(Cl)c3C)c(-n3nc(C)cc3C)nc2c1 | -1% | -3%
Cc1c(C(=O)OCc2ccccc2)sc(=S)n1C | -2% | 18%
Cc1cc(C)c(S(=O)(=O)Nc2ccc(-c3ccc(N4CCC(C)CC4)nn3)cc2)cc1C | 357%[activator] | 82%[activator]
COc1ccccc1C(=O)CSc1nnc(Nc2cccc(C)c2C)s1 | 27% | 21%
O=c1c2cnc3nc(-c4ccncc4)nn3c2ccn1CCN1CCCCC1 | -1% | 4%
COc1cc(/C=C(\C#N)c2nc3ccccc3n2C)cc(OC)c1OC | -11% | 0%
CCc1cccc(NC(=O)CCS(=O)(=O)c2cc(Br)cc3c2N(C(C)=O)CC3)c1 | -1% | -18%
O=C(NCC1CCCO1)Nc1c(NC2CCCC2)c2ccccc2oc1=O (stereo not given) | -7% | -8%
Cc1ccc(C(=O)NC2CC2)cc1NC(=O)NC1CCC(C)CC1 (stereo not given) | -12% | 0%
COC(=O)C(CCSC)NC(=O)N(C1CCCCC1)C1CCCCC1 (stereo not given) | -1% | 3%
Cn1c(=O)c2c(ncn2CCC(=O)Nc2cc(Cl)cc(Cl)c2)n(C)c1=O | 10% | 6%
CCCN(C(=O)c1cc(S(=O)(=O)N2CCc3ccccc32)cn1C)c1ccc(OCC)cc1 | -11% | -23%
CN(C)c1ccc(/C=C(\C#N)c2nc3ccccc3c(=O)[nH]2)cc1 | -12% | 66%[activator]
CCN(Cc1ccccc1)C(=O)CN1C(=O)CSc2ccc(S(=O)(=O)N(CC)CC)cc21 | -11% | -14%
N#Cc1nc(-c2ccco2)oc1N1CCN(CC(=O)N2CCCCC2)CC1 | 2% | 8%
COc1cc(C(=O)Nc2c(NCc3ccccc3)c3ccccc3oc2=O)cc(OC)c1OC | 1% | 12%
COc1ccc(NC(=O)CN(c2cccc(C)c2C)S(=O)(=O)c2ccccc2)cc1OC | 15% | -5%
CCC(CC)(Cc1nc2ccccc2s1)C(=O)Nc1ccc(N2CCOCC2)cc1 | -21% | -17%
COc1ccccc1-n1[nH]c(C)c(Cc2cccc(Cl)c2)c1=O | 22% | 3%
Cc1ccc(NC(=O)CCCc2cccs2)c(Br)c1 | 8% | 154%[activator]
Cc1ccc(S(=O)(=O)c2c(O)cc(C)c(NS(=O)(=O)c3ccc(Br)cc3)c2C)cc1 | 219%[activator] | 0%
Cc1nc(SCC(=O)NC23CC4CC(CC(C4)C2)C3)n(C2CC2)c1C | 8% | -10%
CCCc1nc(SCc2cc(=O)c3ccc(C)c(C)c3[nH]2)n[nH]1 | -14% | -14%
CCOCCn1c(Br)nc2c1c(=O)n(C)c(=O)n2C | -6% | -7%
